FEN1 inh: blocks human flap endonuclease 1; Recombinant FEN1 flap cleavage, fluorescence, 15 min; AID 588795; Potency, µM (top dose mostly 114 µM), inactives show top-dose activity change, negative = inhibition, usual class: inhibitors; 0.35% of 390,000 active; further: nearly all actives have a fitted effect of over 65% in size
Target sequence (P39748 whole entry, looked up): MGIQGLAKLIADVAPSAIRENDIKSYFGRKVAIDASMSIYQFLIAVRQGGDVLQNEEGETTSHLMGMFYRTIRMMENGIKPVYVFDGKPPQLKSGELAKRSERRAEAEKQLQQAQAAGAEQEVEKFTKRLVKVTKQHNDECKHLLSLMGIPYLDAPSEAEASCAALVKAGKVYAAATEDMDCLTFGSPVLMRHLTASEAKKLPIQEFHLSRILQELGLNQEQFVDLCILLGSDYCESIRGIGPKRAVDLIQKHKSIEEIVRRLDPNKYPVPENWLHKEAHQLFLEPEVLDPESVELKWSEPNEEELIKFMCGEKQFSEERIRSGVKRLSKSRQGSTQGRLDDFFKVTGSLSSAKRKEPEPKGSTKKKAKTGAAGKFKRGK
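In this screen, 50 nM flap DNA substrate was added to 10 nM FEN1 pretreated with compound for 15 min at room temperature; cleavage was followed with reads at 0 and 15 min, and Hill fitting gave concentration–response parameters.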
N370S GC: inhibits or activates N370S mutant glucocerebrosidase | 0.092% of 330,000 active | Potency, µM (titrated, usually from 59.4 µM), without a hit: at the top dose activity change, negative = inhibition, actives largely listed as inhibitors | N370S GC spleen homogenate, 4MU-glucoside fluorescence;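 further: 0% = full enzyme activity and -100% = no enzyme basal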
* hit, by the source's call; ? = inconclusive; · = no result given; & = joins results of further samples; [ ] = dose if it differs, or a comment. The call rests on the fitted dose curve; in most records, active means well fitted curve in the direction sought with a large enough effect; inconclusive means small, poorly fitted or top-dose-only effect, or another doubt; inactive means no such curve, though single readings can be large; an effect the other way counts as inactive or inconclusive. Unless noted, on the % scale 0 is the no-effect control and ±100 the full control effect; potency means the concentration at half of the fitted maximal effect.

compound | FEN1 inh | N370S GC
O=C(NCc1ccccn1)C(=O)NCC1OCCCN1S(=O)(=O)c1cc(F)ccc1F (configuration not stated) | -2% | -6%
O=C(O)CCCCCNC(=O)CCn1cnc2ccccc2c1=O | 6% | 2%
CCCOc1cccc(C(=O)Nc2ccccc2C(=O)N2CCN(C)CC2)c1 | -2% | -1%
COC(=O)c1ccccc1OCC(=O)N1CCN(c2ccc(F)cc2)CC1 | 3% | 3%
Clc1cccc(-c2cc3nc4c(c(N5CCOCC5)n3n2)CCCC4)c1 | -13% | 2%
C=CCSc1nc(C)c(CC(=C)C)c(=O)[nH]1 | -17% | 8%
CCOC(=O)Cn1cc(/C=N/NC(=O)c2ccc(C#N)cc2F)c2ccccc21 | -21% | 6%
O=c1oc2ccccc2c(N2CCCC2)c1CN1CCCC1 | 1% | 4%
O=C1NC(=S)N(c2cccc(Cl)c2)C12CCCCC2 | -6% | 4%
Cn1c(CCC(=O)OCC(=O)NCc2ccccc2Cl)nc(=O)c2ccccc21 | 14% | 1%

Next compounds.
compound | FEN1 inh | N370S GC
CS(=O)(=O)c1ccc(-c2sc3ccccc3c2C(=O)NCCCN2CCOCC2)cc1 | 10% | ·
COc1cc(-c2nc(S(=O)(=O)c3ccc(C)cc3)c(N(C)C)o2)cc(OC)c1OC | -19% | -20%
COc1ccc(-c2ccc([C@H]3[C@@H]4C=CCC[C@@]4(C)C(=O)N3Cc3ccccc3)c(F)c2)cc1OC | -18% | 23%
Cc1nc(SCC(=O)N2CCOCC2)c2c(=O)n(C)c(=O)n(C)c2n1 | 12% | -4%
COc1cc(S(=O)(=O)N2CCN=C2c2ccccc2)ccc1Cl | -2% | -24%
Cc1nn(CCC(=O)Nc2ccccc2Br)c(=O)c2nn(-c3ccccc3)c(C)c12 | 16% | ·
COc1ccccc1C(=O)N1CCN=C1SC | -1% | 27%
O=C(Nc1ccnn1C1CCN(Cc2ccccc2)CC1)C1CCOC1 (configuration not stated) | 3% | 0%
CCCC12CN(C(=O)c3ccco3)CC(CCC)(CN(C(=O)c3ccco3)C1)C2=O | 15% | -5%
COC(C(=O)Nc1ccnn1C1CCN(Cc2ccc(CO)o2)CC1)c1ccccc1 (configuration not stated) | 2% | -1%

Going on with the list:
compound | FEN1 inh | N370S GC
COc1ccc(N(CC(=O)N2CCN(c3ccccc3)CC2)S(=O)(=O)c2ccc(C)cc2)cc1 | 5% | 0%
COc1ccccc1C(CNC(=O)c1cccc(S(=O)(=O)Nc2ccc(F)cc2)c1)N(C)C (configuration not stated) | -3% | ·
CCOC(=O)C1CCN(C(=O)c2cccc(Cl)c2)CC1 | 1% | 0%
CC1(C)CC(NC(=O)c2cc(S(=O)(=O)N3CCCCC3)ccc2Cl)CC(C)(C)N1 | -2% | -6%
CCOc1ccc(NC(=O)c2cc3c(C)nc4ccccc4c3o2)cc1 | -8% | -3%
Cn1c(SCC(=O)Nc2nccs2)nnc1C1CC1 | 5% | -15%
CCc1nc2c3cnn(-c4cc(Cl)ccc4C)c3ncn2n1 | 1% | 6%
CC1CCCN(S(=O)(=O)c2ccc(CN3C(=O)c4cccnc4C3=O)cc2)C1 (configuration not stated) | 13% | 6%
C[C@H](CO)N1C[C@H](C)[C@@H](CN(C)C(=O)NC2CCCCC2)Oc2c(NC(=O)Nc3ccc(C(F)(F)F)cc3)cccc2C1=O | 50% | ·
O=C(CN(C1CCCCC1)S(=O)(=O)c1ccc(Cl)cc1)NCc1ccncc1 | 1% | -24%[2.35 µM]

Additional compounds follow.
compound | FEN1 inh | N370S GC
CN(C)CCN(C(=O)/C=C/c1cccs1)c1nc2c(F)cc(F)cc2s1 | 17% | -13%
Cc1ccccc1C(=O)O/N=C(\N)c1ccncc1 | -4% | 9%
Clc1nc(Cl)nc(NCCC2=CCCCC2)n1 | 17% | 6%
CO/N=C/NC(=O)Cc1cn(-c2ncc(C(F)(F)F)cc2Cl)c2ccccc12 | -19% | 16%
COc1ccccc1C(=O)N(Cc1ccc(C)o1)C1CCS(=O)(=O)C1 (configuration not stated) | 9% | -3%
COc1ccc(NC(=O)c2nnn(CC(=O)Nc3ccc(C)c(C)c3)c2N)cc1OC | 42%[activator] | ·
CC(C)CCNC(=O)C(=O)NCCC1=CCCCC1 | 3% | 14%
CCN(CC)CCNC(=O)Cn1cnc2sc(C)c(S(=O)(=O)N3CC(C)CC(C)C3)c2c1=O (configuration not stated) | 2% | -1%
O=C(NCC(c1ccco1)N1CCCCC1)c1cccc(S(=O)(=O)Nc2ccc(F)cc2)c1 (configuration not stated) | -1% | -12%
CC(=O)Nc1cccc(C(=O)OCC(=O)NCc2ccc(F)cc2)c1 | -3% | 0%

(continued)
compound | FEN1 inh | N370S GC
CC(NC(=O)c1ccc2c(c1)C(=O)N(Cc1cccnc1)C2=O)c1ccccc1 (configuration not stated) | 0% | -5%
Cc1nc2nc(SCC(=O)NCc3ccccc3)nn2c(C)c1Cc1ccccc1 | 26% | ·
COc1ccc(C(=O)N2c3ccccc3CC2C)cc1OC (configuration not stated) | -5% | 9%
O=C(Nc1ccc2c(c1)OCCO2)c1ccc(Cl)c([N+](=O)[O-])c1 | ? | -25%
CCCN(CCC)CC(O)Cn1cc(/C=C/C(=O)c2ccccc2)c2ccccc21 (configuration not stated) | -16% | -10%
Cc1ccc(C(=O)OCC(=O)NC2CCCCCC2)c(C)c1 | 13% | -9%
CCCc1cc(C(=O)N2CCCC(Cc3ccccc3C)(C(=O)OCC)C2)no1 (configuration not stated) | -18% | 0%
CCc1cccc(NC(=O)Cn2c(-c3ccccc3)cc(C(C)=O)c2C)c1 | 12% | 1%
CN(C(=O)CSc1nnc(-c2ccc3c(c2)OCO3)o1)C1CCS(=O)(=O)C1 (configuration not stated) | -4% | ·
Cc1cc(NC(=O)CCC(=O)N(c2ccccc2)C(C(=O)NC2CCCCC2)c2cccs2)no1 (configuration not stated) | -3% | 6%

The list goes on:
compound | FEN1 inh | N370S GC
O=C(COC(=O)c1ccccc1)Nc1ccccc1Br | 5% | -6%
FC(F)(F)c1cccc(N2CCN(Cc3ccoc3)CC2)c1 | 13% | -4%
COCCn1c(Cc2cccn2C)nnc1SCC(=O)Nc1nccs1 | 2% | 3%
CCOc1ccc(NC(=O)CN(C)S(=O)(=O)c2ccc3c(c2)CCC(=O)N3)cc1 | -2% | -9%
CCC(CC)C(=O)NCCc1cc2ccc(OC)cc2[nH]c1=O | 0% | 5%
O=C(COc1coc(CN2CCc3ccccc3C2)cc1=O)Nc1ccc(Cl)cc1 | 1% | -3%
Nc1ccc[n+](Cc2ccccn2)c1 | 5% | 6%
COC(=O)[C@H](CCSC)NC(=O)NCc1cccs1 | 1% | -2%[2.35 µM]
CC1=C(C(=O)OCc2ccc3c(c2)OCO3)C(c2ccccc2)NC(=O)N1 (configuration not stated) | -13% | 6%
COc1ccc(C(=O)c2oc3ccccc3c2NC(=O)COc2ccc(C)cc2)cc1 | -2% | ·

Next results follow.
compound | FEN1 inh | N370S GC
CCC(C)[C@H](NC(=O)N1CCCC1)C(=O)O (some centres not stated) | -9% | 2%
CNc1c(NS(=O)(=O)c2ccc(OC)c(Cl)c2)c(=O)oc2ccccc12 | 20% | -17%
CCc1ccc(CNC(=O)c2ccc(CS(=O)(=O)Cc3cccc(C)c3)o2)cc1 | -5% | ·
O=C(Nc1ccc(Cl)cc1)[C@@H]1[C@@H]2C(=O)N(c3cccc(F)c3)C(=O)[C@@H]2[C@H]2C=CC=NN21 | -13% | 13%
CC(C)(C)NS(=O)(=O)c1ccc2nc(NC(=O)c3cccnc3)sc2c1 | 6% | ·
O=C1CCN(c2ccc([N+](=O)[O-])cc2F)CC1 | -10% | -8%
COc1ccc(-c2cc(C(=O)NCc3cccnc3)no2)cc1OC | -2% | 3%
CC(C)C(=O)Nc1ccc([N+](=O)[O-])c(C(F)(F)F)c1 | 7%&10% | 2%
CCCCNC(=O)c1ccccc1NC(=O)c1ccccc1N(C)S(C)(=O)=O | -8% | -23%
Cc1ccc(C)c(N(Cc2cc3ccc(C)cc3[nH]c2=O)C(=O)c2ccco2)c1 | -17% | 26%

Next section.
compound | FEN1 inh | N370S GC
N#Cc1nc(Cc2ccccc2)oc1NCc1ccccc1 | 1% | 7%
COc1cc(NC(C)=O)c2ncccc2c1NC(C)=O | -4% | -7%
CCn1cc(S(=O)(=O)NCCc2ccc(F)cc2)cn1 | 2% | -1%
CCOc1cc(C2C(C(=O)c3ccco3)=C(O)C(=O)N2CCc2ccccc2)ccc1O (configuration not stated) | -14% | -3%
Brc1ccccc1-c1nnc(-c2cccnc2)o1 | -2% | 8%
Cc1cc(C)c(C)c(S(=O)(=O)N2C(=S)NC(=O)C2CC(C)C)c1C (configuration not stated) | 5% | 12%
CCC1=C(OC(=O)N(CC)CC)N2C(=O)OC(=NCC3CC3)[C@]2(Cc2ccccc2)[C@H]2C1=CC[C@H]1C(=O)N(c3ccccc3)C(=O)[C@H]12 | 12% | 8%&5%
CC(CC(=O)Nc1ccc(S(=O)(=O)N2CCOCC2)cc1)c1ccccc1 (configuration not stated) | 8% | -7%
CCSc1ncc(Cl)c(C(=O)Nc2c(C(=O)Nc3ccccc3)oc3ccccc23)n1 | -1% | ·
COc1cccc(CN(C(=O)c2ccc([N+](=O)[O-])cc2)C2CCS(=O)(=O)C2)c1 (configuration not stated) | -3% | -6%

Following part.
compound | FEN1 inh | N370S GC
COc1ccc(C(=O)Nc2ccccc2C(=O)NCc2ccco2)cc1OC | -5% | 1%
CCc1nccn1CCC(=O)NC1CC(C)(C)Cc2c1cnn2-c1cccc(F)c1 (configuration not stated) | 6% | -6%
COc1ccc(NC(=O)CCc2nc3ccccc3[nH]2)cc1 | 0% | -3%
CC(NC(=O)C(C(=O)c1cccc([N+](=O)[O-])c1)n1cc(Cl)ccc1=O)c1ccccc1 (configuration not stated) | 6% | 1%
COc1ccc(N(CC(=O)NC2CC3CCC2C3)S(=O)(=O)c2ccc(C)c([N+](=O)[O-])c2)cc1 (configuration not stated) | -3% | -6%
CN(CC(O)COc1ccc2ccccc2c1)C1CCCCC1 (configuration not stated) | 3% | -11%
COc1cc(OC)cc(-c2nnc(SCC(=O)N(C(C)C)C(C)C)o2)c1 | 15% | 6%
CCC(=O)NC(NC(=S)Nc1c(C)n(C)n(-c2ccccc2)c1=O)C(Cl)(Cl)Cl (configuration not stated) | 5% | 8%
COc1ccccc1C(=O)NCC(=O)N/N=C(\C)Cc1ccccc1 | 3% | -3%
COc1cc(-c2nc(=S)[nH][nH]2)cc(OC)c1OC | ? | 5%

Continuation:
compound | FEN1 inh | N370S GC
CCOc1ccc(NC(=O)Nc2c[nH]c(=O)[nH]c2=O)cc1 | -1% | ·
CN(C)CCCCOc1ccccc1F | 0% | -4%
CN1C(C(=O)NCc2ccc(OC(F)(F)F)cc2)CC2Cn3c(nc4cc5ccccc5cc43)C21 (configuration not stated) | 8% | -5%
COc1cc(C(=O)NNC(=O)c2ccc(S(=O)(=O)N3CCCCC3)cc2)cc(OC)c1OC | 10% | -3%
CS(=O)(=O)N1CCN(C(=O)Nc2ccccc2)CC1 | -8% | -18%
CCC(C)NC(=O)c1cc(CC(C)C)on1 (configuration not stated) | 3% | 10%
CC(C)(C)c1ccc(OCc2ccc(C(=O)Nc3cccnc3)o2)cc1 | -7% | ?
O=C1OCCN1C(=O)[C@H]1[C@H](c2ccc(F)cc2)C(c2ccc(F)cc2)=NN1c1ccccc1 | -30% | 10%&7%
CC1=C(C)CC(C(=O)NC2CCN(C(C)C)CC2)C(C(=O)O)C1 (configuration not stated) | 16% | -2%
Cc1ccc(/C=N/n2cnc3sc(-c4ccccc4)cc3c2=O)o1 | -6% | ·

Some of the entries so far, with two lines to a compound:
Values run as follows: FEN1 inh	N370S GC
- COc1ccc(C(=O)Nc2ccccc2C(=O)NCc2ccco2)cc1OC
→ -5%	1%
- CCc1nccn1CCC(=O)NC1CC(C)(C)Cc2c1cnn2-c1cccc(F)c1 (configuration not stated)
→ 6%	-6%
- COc1ccc(NC(=O)CCc2nc3ccccc3[nH]2)cc1
→ 0%	-3%
- CC(NC(=O)C(C(=O)c1cccc([N+](=O)[O-])c1)n1cc(Cl)ccc1=O)c1ccccc1 (configuration not stated)
→ 6%	1%
- COc1ccc(N(CC(=O)NC2CC3CCC2C3)S(=O)(=O)c2ccc(C)c([N+](=O)[O-])c2)cc1 (configuration not stated)
→ -3%	-6%
- CN(CC(O)COc1ccc2ccccc2c1)C1CCCCC1 (configuration not stated)
→ 3%	-11%
- COc1cc(OC)cc(-c2nnc(SCC(=O)N(C(C)C)C(C)C)o2)c1
→ 15%	6%
- CCC(=O)NC(NC(=S)Nc1c(C)n(C)n(-c2ccccc2)c1=O)C(Cl)(Cl)Cl (configuration not stated)
→ 5%	8%
- COc1ccccc1C(=O)NCC(=O)N/N=C(\C)Cc1ccccc1
→ 3%	-3%
- COc1cc(-c2nc(=S)[nH][nH]2)cc(OC)c1OC
→ ?	5%
- CCOc1ccc(NC(=O)Nc2c[nH]c(=O)[nH]c2=O)cc1
→ -1%	·
- CN(C)CCCCOc1ccccc1F
→ 0%	-4%
- CN1C(C(=O)NCc2ccc(OC(F)(F)F)cc2)CC2Cn3c(nc4cc5ccccc5cc43)C21 (configuration not stated)
→ 8%	-5%
- COc1cc(C(=O)NNC(=O)c2ccc(S(=O)(=O)N3CCCCC3)cc2)cc(OC)c1OC
→ 10%	-3%
- CS(=O)(=O)N1CCN(C(=O)Nc2ccccc2)CC1
→ -8%	-18%
- CCC(C)NC(=O)c1cc(CC(C)C)on1 (configuration not stated)
→ 3%	10%
- CC(C)(C)c1ccc(OCc2ccc(C(=O)Nc3cccnc3)o2)cc1
→ -7%	?
- O=C1OCCN1C(=O)[C@H]1[C@H](c2ccc(F)cc2)C(c2ccc(F)cc2)=NN1c1ccccc1
→ -30%	10%&7%

A portion of the library, and most or all hits are left out here.
